StopGo FLuc – lowers the firefly signal of an FMDV 2A StopGo reporter; AID 1745856; Potency, µM (titrated, usually from 57.5 µM), inactives show at the highest dose signal change, negative = less light; hit rate 0.23% among 120,000; HEK cells with a luciferase reporter of 2A StopGo recoding; active = well fitted falling curve with a large enough effect; inconclusive = small, poorly fitted or top-dose-only effect; inactive = no such curve, though single readings can be large or run the other way; also: nearly all actives have a fitted effect of over 60% in size; overnight with compound
StopGo RLuc – FMDV 2A StopGo reporter, Renilla signal. HEK cells with a luciferase reporter of 2A StopGo recoding. Potency, µM (doses to about 57.5 µM), inactives show at the highest dose signal change, negative = less light. hit rate 0.32% among 120,000; active means well fitted falling curve with a large enough effect; inconclusive means small, poorly fitted or top-dose-only effect; inactive means no such curve, though single readings can be large or run the other way; also: nearly all actives have a fitted effect of over 55% in size; overnight with compound
Active calls of the source: *; ? = inconclusive; & = joins results of further samples; [ ] = dose if it differs, or a comment. % is scaled to controls: 0 for no effect and ±100 for the full control effect; potency is read from the fitted curve at half-maximal effect. Some of the compounds tested; count on the stated rates, not on these rows.

SMILES	StopGo FLuc	StopGo RLuc
COc1cccc(CSc2nc3ccncc3n2Cc2cccc(OC)c2)c1	14%	-13%
COCCNC(=O)Cc1nc(-c2cccs2)oc1C	11%	-17%
Cc1cccc(NC(=O)CSc2nc3ccccc3nc2N2CCCCC2)c1C	19%&8%	-3%&0%
O=c1c2ccccc2c(-c2cccs2)nn1CC(O)COCc1ccccc1 (configuration not stated)	-2%	22%
CCn1c(N2CCN(Cc3ccccc3F)CC2)nc2c1c(=O)[nH]c(=O)n2C	1%	-8%
CCOC(=O)c1ccccc1NC(=O)N1CCOc2ccc(Cl)cc21	-14%	1%
COc1cccc(Oc2coc3cc(OCc4ccc(F)cc4)ccc3c2=O)c1	4%	-7%
CC(=O)N/N=C/c1ccc(C(C)C)cc1	123%[activator]	17%
Cc1ccc(NC(=O)CSc2nc3cc([N+](=O)[O-])ccc3o2)cc1	70%[activator]	12%
CCOc1ccc(-c2nonc2NC(=O)c2oc3ccc(F)cc3c2C)cc1	29%&40%	66%&53%[activator]
COc1ccc(OCC(=O)Nc2cc(-c3ccccc3)no2)cc1	112%[activator]	6%
CCN(CC)C(=O)c1c(NC(=O)c2cccc(C)c2)sc2c1CCC(C)C2 (configuration not stated)	19%	10%
CCc1cccc(NC(=O)c2ccc(CN3C(=O)C(C)=C(c4ccc(OC)cc4)S3(=O)=O)cc2)c1	0%	-1%
CCNC(=O)NC(=O)CN1CCCC(c2nc3ccccc3o2)C1 (configuration not stated)	0%	-2%
CCN(CC)CC(=O)OCC(=O)[C@@]1(O)CC[C@H]2[C@@H]3CCC4=CC(=O)CC[C@]4(C)[C@H]3[C@@H](O)C[C@@]21C	-10%	2%
CCc1ccc(S(=O)(=O)c2c(C(=O)c3ccc(C)c(C)c3)cnc3ccccc23)cc1	-17%	-2%
CN(C(=O)CNc1ccccc1Cl)C1CCS(=O)(=O)C1 (configuration not stated)	27%	-7%
Cc1ccccc1N1CCN(S(=O)(=O)c2ccccc2)CC1	-14%	57%[activator]
CC1CCN(C(=O)Cn2c(SCC(=O)Nc3ccc(F)cc3)nc3ccccc32)CC1	-15%	19%
Fc1ccc(Sc2ccncc2)cc1	10%	3%
O=S(=O)(/C(=C/c1ccc2ccccc2c1)c1nc2ccccc2[nH]1)c1ccccc1	35µM*	16µM*
Nn1nc(-c2ccccc2)nc1-c1ccccc1	235%[activator]	10%
Cc1ccc(S(=O)(=O)N(Cc2cccnc2)C2CC2)cc1F	1%	3%
CS(=O)(=O)N1CCc2cc(C(=O)N3CCN(c4ccccc4F)CC3)ccc21	2%	33%[activator]
CCCNc1c(NC(=O)c2cccs2)c(=O)oc2ccccc12	4%	8%
Cc1ccc(-c2cc(C(=O)OC(C)C(N)=O)c3ccccc3n2)cc1 (configuration not stated)	48%[activator]	-4%
CCOC(=O)C(NC(=O)Cc1coc2c(C)c(C)ccc12)C(=O)OCC	9%	-1%
O=C(NCC12CC3CC(CC(C3)C1)C2)c1cc2nc(-c3ccccc3)cc(C(F)(F)F)n2n1	-13%	-8%
CCCNc1c(C)cccc1C	9%	14%
O=C(CSc1nc2c([nH]c3ccccc32)c(=O)n1-c1ccccc1)NCc1ccc(F)cc1	33%[activator]	47%[activator]
O=C(Nc1ccccc1C(=O)OCc1cc(=O)n2nc(C3CC3)sc2n1)c1cccc(F)c1	-20%	-5%
CCn1nc(C)c2c(-c3ccccc3)cc(=O)n(C(C)C(=O)NCc3ccccc3OC)c21 (configuration not stated)	-22%	-5%
CC(Sc1nnnn1C(C)(C)C)C(=O)c1cccc(Cl)c1 (configuration not stated)	24%	13%
Nn1c(SC(C(=O)N2CCCCC2)c2ccccc2)nnc1-c1ccccc1F (configuration not stated)	-27%	-20%
O=C(c1cc(C2CC2)nc2ccccc12)N1CCC(C(=O)N2CCCCCC2)CC1	7%	6%
COc1cccc(-c2nc(-c3ccc(S(=O)(=O)N4CCCCC4)cc3)cs2)c1OC	-5%	-3%
Cn1c(=O)c2c(-c3ccccc3)n3c(c2n(C)c1=O)C(c1cccc([N+](=O)[O-])c1)Nc1ccccc1-3 (configuration not stated)	-17%	-15%
CCCc1c(C(=O)Nc2ccc(NC(C)=O)cc2)nnn1-c1ccc2noc(-c3ccccc3)c2c1	-25%	-17%
Cc1nc(NCCC(C)C)sc1C(=O)NCc1ccco1	106%[activator]	-3%
CC(C)N(C(=O)c1ccc(Br)cc1)C(C)C	-12%	1%
CNC(=O)c1ccc2c(c1)CCCN2C(=O)c1ccc(Cl)cc1	-2%	6%
CSCCC(NC(=O)c1ccc2ccccc2n1)C(=O)NC1CC1 (configuration not stated)	-4%	2%
CCOc1ccc(N2CC(c3nc4ccccc4n3CCCCOc3ccc(OC)cc3)CC2=O)cc1 (configuration not stated)	-16%	7%
O=C1CN(C(=O)Cc2ccc(F)cc2)C(c2ccccc2)c2cc(Cl)ccc2N1 (configuration not stated)	-19%	4%
CCOC(=O)Cn1c(C2CC(=O)N(Cc3ccccc3)C2)nc2ccccc21 (configuration not stated)	-9%	-5%
CCC(C)Nc1oc(/C=C/c2cccc(OC)c2)nc1C#N (configuration not stated)	64%[activator]	19%
Cc1ccc(-n2ncc(C(=O)N3CCN(Cc4ccccc4)CC3)c2C2CCN(C(=O)OC(C)(C)C)CC2)c(C)c1	-9%	-1%
Cc1c(CC(=O)NCc2ccccc2)c(=O)oc2cc(O)ccc12	52%[activator]	50%[activator]
CN1CCC(CNC(=O)CCc2c[nH]c3ccccc23)CC1	-4%	-10%
Cc1cccc(CSc2nc3nc[nH]c3c(=O)[nH]2)c1	37%[activator]	15%
CC(C)CNS(=O)(=O)CC1NCc2ccccc21 (configuration not stated)	20%	184%[activator]
Cc1cccc(C)c1NC(=O)CSc1nnc(-c2cccs2)n1-n1cccc1	3%	5%
CSc1cccc(NC(=O)CCc2ncc(-c3ccccc3F)o2)c1	0%	-1%
CCCC(NC(=O)NCc1ccc(F)cc1)C(=O)N(C)CC(=O)N(CC)CC (configuration not stated)	-3%	5%
CC(=O)c1ccc(NC(=O)CN2C(=O)CN(C)C(=O)c3ccccc32)cc1	2%	-8%
Clc1cccc(N/N=C/C(Br)=C/c2ccccc2)c1	215%[activator]	20%
CC(C)c1ccc2oc3nc(N)c(C(=O)O)cc3c(=O)c2c1	70%[activator][11.5 µM]	-4%
CCC(=O)N1CCc2cc(S(=O)(=O)N3CCN(c4ccccc4F)CC3)ccc21	-32%	-10%
Cc1cccc(Cn2c(CN3CCC(C(=O)NCc4ccccc4Cl)CC3)cc3ccccc32)c1	-19%	-5%
O=C(Nc1ccc(Cl)c(Cl)c1)N(Cc1c[nH]c2ccccc12)C1CCCCC1	56%[activator]	0%

Later entries:
SMILES	StopGo FLuc	StopGo RLuc
CCC1CN(C(=O)Nc2cc(OC)cc(OC)c2)c2ccccc2S1 (configuration not stated)	-4%	-9%
Cc1cccc(C)c1Nc1c(-c2ccccc2Cl)nc2cnccn12	53%[activator]	49%[activator]
CN(C(=O)c1cccc(Cl)c1)c1nc2ccccc2o1	2%	-4%
COC(=O)C1=C(C(=O)OC)SC(=C(Cl)C(=S)Sc2ccccn2)S1	12%	-5%
CC(=O)N/C(=C/c1ccccc1)C(=O)OC(C(N)=O)c1ccccc1 (configuration not stated)	0%	2%
O=C(/C=C/c1cccs1)Oc1ccc2oc3ccccc3c2c1	78%[activator]	29%
CCOc1ccccc1NS(=O)(=O)c1ccc(-c2cnc(C3CC3)o2)cc1	-24%	-6%
NC(=O)C1CN(C(=O)c2nn(Cc3ccccc3)c(=O)c3ccccc23)c2ccccc2O1 (configuration not stated)	38%[activator]	70%[activator]
CC(C)C(=O)Nc1cccc(C(=O)Nc2nnc(CC(C)(C)C)s2)c1	26%	6%
CCc1nnc2c3ccccc3nc(Nc3ccc(F)c(Cl)c3)n12	-1%	3%
CCCn1c(Cn2ccnc2C)nc2cc(NC(=O)COc3ccc(OC)cc3)ccc21	15%	13%
N#Cc1c(SCC(=O)N2CCCC2)nc(N2CCOCC2)c2c1CCCC2	-9%	13%
O=C(OCc1cc(-c2ccccc2)no1)c1cc(Cl)c[nH]1	37%[activator]	12%
Cc1cc(=O)n2[nH]c(CN(C(=O)c3ccccc3C)c3ccc(Cl)cc3)nc2n1	41%[activator]	11%
COc1cccc(NS(=O)(=O)c2ccc3[nH]cc(C(=O)N4CCCC4)c(=O)c3c2)c1	-9%	-12%
Cc1cc(C)c2c(=O)cc(C(=O)NCc3ccc4c(c3)OCO4)oc2c1	6%	3%
Brc1ccc(-c2noc(-c3ccco3)n2)o1	99%[activator]	9%
O=C1CN(Cc2coc(-c3ccc(Cl)cc3)n2)CCN1	91%[activator]	7%
COc1cc(Nc2nc3ccccc3c3nnc(C)n23)cc(OC)c1	-13%	-10%
CN(C(=O)CSc1nncn2c1cc1occc12)c1ccccc1	0%	3%
Cc1cccc(OCCCn2c(CCNC(=O)C(C)(C)C)nc3ccccc32)c1	?	?
N#CCCSc1sc(=S)sc1SCc1cc(C(F)(F)F)cc(C(F)(F)F)c1	-19%	?
c1ccc(-c2nnn(Cc3csc(-c4ccccc4)n3)n2)cc1	33%[activator]	13%
O=C(Nc1ccccc1C(=O)NC1CC1)c1cnc2ccccc2n1	161%[activator]	1%
Cc1ccccc1C(C)NC(=O)Cn1cnc2c1c(=O)n(C)c(=O)n2C (configuration not stated)	10%	-2%
Cc1cnc(NC(=O)c2nn(CC(C)C)c(=O)c3ccccc23)s1	-10%	-3%
CCc1noc(Cn2c(=O)c(C#N)cn(C3CC3)c2=O)n1	-4%	-10%
Cc1cc(C)c(S(=O)(=O)Nc2cccc3cccnc23)c(C)c1	0%	165%[activator]
CCc1nc(CC(=O)Nc2ccc(C)cc2)sc1C	0%	29%
COc1ccc(-c2ccc(CCC(=O)Nc3ccc(OC)c(Cl)c3)o2)cc1	21%	17%
CC(=O)c1c(C)n([O-])c2ccc(C)cc2[n+]1=O	-6%	-10%
COc1ccc(-c2cc3nc(C)c(CCC(=O)NCc4ccc5c(c4)OCO5)c(C)n3n2)c(OC)c1	-24%	0%
COc1ccc(-c2cc3ccc(OCCN4CCN(CCO)CC4)cc3oc2=O)cc1OC	5%	-4%
COc1ccc(-c2noc(CC(=O)Nc3cc(OC)ccc3OC)n2)cc1	-20%	?
O=C(Cc1cccc2ccccc12)Nc1cc(Cl)ccc1C(=O)O	12%	-1%
Cc1ccc(Cl)cc1N1CCN(C(=O)c2nn(C)c3c2CS(=O)(=O)c2ccccc2-3)CC1	?	-20%
CCCn1c(=O)c2sccc2n2c(CCCC(=O)NC3CCCCC3)nnc12	-12%	-9%
Cc1ccc2nc(-c3ccc(O)cc3)c(Nc3ccc4c(c3)OCCO4)n2c1	193%&54%[activator]	62%&14%[activator]
CCCCC(CC)CNC(=O)Cc1ccc(-n2c(=O)[nH]c3ccccc3c2=O)cc1 (configuration not stated)	-14%	33%[activator]
Cc1cc2c(cc1S(=O)(=O)N(C)CC(=O)Nc1ccc(C#N)cc1)OCC(=O)N2	-15%	8%
COc1ccc(N2C(=O)CCS2(=O)=O)cc1S(=O)(=O)N1CCC2(CC1)OCCO2	3%	-4%
COc1ccc(NC(=O)C2CCCN(S(=O)(=O)c3ccc4c(c3)oc(=O)n4C)C2)c(OC)c1 (configuration not stated)	17%	14%
CCc1cccc(C)c1NC(=O)C1CCN(c2nn3c(=O)cc(C)nc3s2)CC1	-17%	-13%
Cc1ccc(NC(=O)c2oc3ccccc3c2NC(=O)C23CC4CC(CC(C4)C2)C3)cc1	3%	-10%
COc1ccc(/C=C/C(=O)c2cccs2)c(OC)c1	225%[activator]	60%[activator]

Arranged by length of the SMILES (ascending): 4 of the compounds above.
SMILES	StopGo FLuc	StopGo RLuc
CC(=O)c1c(C)n([O-])c2ccc(C)cc2[n+]1=O	-6%	-10%
CCCn1c(=O)c2sccc2n2c(CCCC(=O)NC3CCCCC3)nnc12	-12%	-9%
Cc1cc2c(cc1S(=O)(=O)N(C)CC(=O)Nc1ccc(C#N)cc1)OCC(=O)N2	-15%	8%
COc1ccc(-c2cc3nc(C)c(CCC(=O)NCc4ccc5c(c4)OCO5)c(C)n3n2)c(OC)c1	-24%	0%

Other results follow:
SMILES	StopGo FLuc	StopGo RLuc
O/N=C1\CCSc2ccccc21	95%[activator]	31%
Cc1ncsc1C(=O)NC(C)c1ccc(Cl)s1 (configuration not stated)	-7%	3%
O=S(=O)(NCCc1nnc2ccc(SCc3ccc(C(F)(F)F)cc3)nn12)c1ccccc1	?	43%[activator]
O=C1CSC(c2cccc(C(F)(F)F)c2)N1c1cccc(Cl)c1 (configuration not stated)	-5%	-6%
COc1ccc(NC(=O)CSC2=Nc3ccccc3C3=NC(C)C(=O)N23)cc1Cl (configuration not stated)	44%[activator]	49%[activator]
CCCNC(=O)c1ccc(NC(=O)c2ccc(F)cc2)cc1	19%	0%
O=C(Nc1cccc(C(=O)N2CCN(c3ccc(Cl)cc3)CC2)c1)c1nsc2ccccc12	-4%	?

Single records, as listed above. Screens in order: StopGo FLuc, StopGo RLuc
Entry for Cc1ncsc1C(=O)NC(C)c1ccc(Cl)s1 (configuration not stated) : -7%, 3%
Entry for CCCNC(=O)c1ccc(NC(=O)c2ccc(F)cc2)cc1 : 19%, 0%
Entry for O=C(Nc1cccc(C(=O)N2CCN(c3ccc(Cl)cc3)CC2)c1)c1nsc2ccccc12 : -4%, ?
Entry for O/N=C1\CCSc2ccccc21 : 95%[activator], 31%
Entry for O=S(=O)(NCCc1nnc2ccc(SCc3ccc(C(F)(F)F)cc3)nn12)c1ccccc1 : ?, 43%[activator]

Rewritten with bars between the fields: entries from further up
SMILES | StopGo FLuc | StopGo RLuc
N#Cc1c(SCC(=O)N2CCCC2)nc(N2CCOCC2)c2c1CCCC2 | -9% | 13%
Cc1cccc(C)c1Nc1c(-c2ccccc2Cl)nc2cnccn12 | 53%[activator] | 49%[activator]

Bioassay records: PubChem, National Center for Advancing Translational Sciences (NCATS)
